# Screening results deposited in PubChem by Fisher Drug Discovery Resource Center.
# NPYLR7 agonist: activates Aedes aegypti NPYLR7 receptor; HEK293T NPYLR7/Galpha15, GCaMP6s calcium fluorescence; activation, % at 10 µM; hit rate 0.15% among 270,000; AID 1259423; in the data active = activation above about 40%;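 note: 0% = vehicle and 100% = reference agonist at the receptor; some compounds past the cut are filed as inactive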
# NPYLR7 agonist max-min: further read-out of NPYLR7 agonist, marked with its call; activation, %; measured here: Max-Min RFU normalised activation; some inactives read as strong as hits;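 span of the calcium signal over five minutes; 0% = vehicle and 100% = native peptide agonist; compound fluorescence can raise it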
# Numbers without * were called inactive; & = joins results of further samples.
SMILES,NPYLR7 agonist,NPYLR7 agonist max-min
O=C(Nc1cccc2ccccc12)N1CCCC(C2OCCO2)C1 (stereo unspecified),-2,-2
Cc1csc(NC(=O)CN(Cc2ccc(O)cc2)CC2CC2)n1,1,-1
CS(=O)(=O)c1cc(C(=O)NC2(c3ccccc3)CCC2)ccc1Cl,-1,-3
O=C(CN1CCOCC1)NC1C2CC3CC(C2)CC1C3 (stereo unspecified),18,9
COCCNC(=O)c1cc(N2CCCN(C)CC2)ccn1,10,10
CN(C)C(=O)c1ccc(NC(=O)CSc2ncc3ccccn23)cc1,5,4
CNc1ccccc1C(=O)N(C)C(C)c1ccc(OC)cc1 (stereo unspecified),5,2
CC(=O)OCC(=O)[C@@]1(O)CCC2C3CCC4=CC(=O)CC[C@]4(C)C3C(=O)C[C@@]21C (stereo partly specified),-12,-16
CC(C)NC(=O)C1(C)CCN1C(=O)c1cccs1 (stereo unspecified),7,2
COc1c(F)cc(C(=O)N2CCC(c3ccc(C(=O)O)cc3)C2)cc1F (stereo unspecified),0,-1
CC1(C(=O)N2CCCC2)CCN1C(=O)c1ccccc1CCc1ccccc1 (stereo unspecified),0,-2
CN1CCN2C[C@@H](NC(=O)C3=CC(=O)CC(C)(C)O3)C[C@H]2C1,-6,8
COc1ccc(NC2CCCN(C(=O)CCOc3ccccc3)C2)cc1 (stereo unspecified),3,0
Cc1csc(=O)n1CCSc1nnc(-c2ccc3c(c2)OCO3)o1,-2,-4
O=C(c1cccc(Cl)c1)N(Cc1ccco1)Cc1nc2cc(Cl)ccc2o1,4,4
Cc1ccccc1S(=O)(=O)NC(=O)C1(C)CCN1C(=O)c1cccc2ccccc12 (stereo unspecified),0,0
COCCN(CC(=O)N1CCc2sccc2C1COc1ccccc1F)C(=O)c1cccs1 (stereo unspecified),-2,1
N#CCOC(=O)c1ccc([N+](=O)[O-])o1,1,-1
O=C(NN(c1ccccc1)c1ccccc1)C1CCCC1,-2,-2
CN1CC2(CCCN(C(=O)Nc3ccccc3)CC2)OC1=O (stereo unspecified),6,3
Cc1c(Br)c(C(=O)N2CCN3CCCC3C2)nn1C (stereo unspecified),0,-2
COCCCNC(=O)C(NC(=O)c1cccc(C)c1)C1CCN(C(=O)c2ccccc2OC)CC1 (stereo unspecified),12,13
Cc1c(C(=O)NC2CCCCC2)oc2ccccc12,9,5
N#Cc1ccccc1COC1C[C@](OCc2cccc(C(F)(F)F)c2)(C(=O)NCc2ccco2)C[C@@H](O)[C@H]1O (stereo partly specified),1,10
Cc1cc(-c2cccc(F)c2)nnc1NCc1cnn(C)c1,1,0
C=CCCC(O)CN(Cc1ccco1)Cc1c(C)nn(-c2ccccc2)c1Oc1cccc(F)c1 (stereo unspecified),-2,5
COCC(=O)N(CCN(C)C)Cc1cc(Cl)ccc1OS(=O)(=O)c1ccc(NC(C)=O)cc1,-1,11
COc1cccc(NC(=O)NC(C)c2nnc(SCc3ccccc3)n2-c2ccc([N+](=O)[O-])cc2)c1 (stereo unspecified),17,15
NC(=O)CCn1cc(-c2ccc(F)cc2Cl)cn1,1,1
COc1cccc(C2=C(C(C)=O)Sc3nnc(-c4ccccc4)n3N2C(C)=O)c1,1,0
Cc1nc(C)c(Cc2ccc([N+](=O)[O-])cc2)c(N2CCN(C(=O)c3cccc(Br)c3)CC2)n1,-4,-6
Cc1cc(C)c(NC(=O)CCCNC(=O)c2cccs2)c(C)c1,-8,-5
O=C1CN(Cc2ccc(-c3ccccc3)cc2)CC2N1C1CCC2(O)CC1 (stereo unspecified),23,17
Cn1c(O)c(C(c2cccc(C(F)(F)F)c2)c2c(O)n(C)c(=S)[nH]c2=O)c(=O)[nH]c1=S,1,-2
CC1CCN(CC2CCCN(C(=O)C3CCCN3C(=O)C(C)(C)C)C2)CC1 (stereo unspecified),1,-3
COCC(=O)N1CCN(C(C(=O)NCCN2CCCCC2)C2CCCC2)CC1 (stereo unspecified),-7,0
CC(C)C(C)N(Cc1ccc(Cl)cc1)Cc1nc(C(=O)NCc2ccncc2)co1 (stereo unspecified),3,-10
Cc1cccnc1C(NC(=O)C1CCN(Cc2ccc(Cl)c(Cl)c2)CC1)c1ccc(F)cc1 (stereo unspecified),5,7
COc1cccc(N2OC(=O)C(c3ccc(Cl)c(Cl)c3)N(C)C2=O)c1 (stereo unspecified),-8,-7
Cc1cccc(N=c2oc3ccc(Br)cc3cc2C(N)=O)c1,-3,-6
O=C(OCC(=O)N(C1CCCCC1)C1CCCCC1)c1ccc([N+](=O)[O-])o1,-3,-4
CCC(C(=O)N1CC=CCC1)n1cc(C(C)=O)c2ccccc21 (stereo unspecified),5,5
N#Cc1ccc(-c2ccccc2)nc1SCC(=O)c1ccc(Cl)cc1,8,-3
CCC(C(=O)N1CCc2c(nc(C)[nH]c2=O)C1)N1Cc2ccccc2C1=O (stereo unspecified),9,5
CCc1cccc2c3c([nH]c12)C(CC)(CC(=O)O)OCC3 (stereo unspecified),-1&6&-7&-6,-5&0&-7&-10

# A second format for part of the listing above.
# Each structure is followed by: NPYLR7 agonist, NPYLR7 agonist max-min
COc1cccc(NC(=O)NC(C)c2nnc(SCc3ccccc3)n2-c2ccc([N+](=O)[O-])cc2)c1 (stereo unspecified)
  17, 15
NC(=O)CCn1cc(-c2ccc(F)cc2Cl)cn1
  1, 1
COc1cccc(C2=C(C(C)=O)Sc3nnc(-c4ccccc4)n3N2C(C)=O)c1
  1, 0
Cc1nc(C)c(Cc2ccc([N+](=O)[O-])cc2)c(N2CCN(C(=O)c3cccc(Br)c3)CC2)n1
  -4, -6
Cc1cc(C)c(NC(=O)CCCNC(=O)c2cccs2)c(C)c1
  -8, -5
O=C1CN(Cc2ccc(-c3ccccc3)cc2)CC2N1C1CCC2(O)CC1 (stereo unspecified)
  23, 17
Cn1c(O)c(C(c2cccc(C(F)(F)F)c2)c2c(O)n(C)c(=S)[nH]c2=O)c(=O)[nH]c1=S
  1, -2
CC1CCN(CC2CCCN(C(=O)C3CCCN3C(=O)C(C)(C)C)C2)CC1 (stereo unspecified)
  1, -3
COCC(=O)N1CCN(C(C(=O)NCCN2CCCCC2)C2CCCC2)CC1 (stereo unspecified)
  -7, 0
CC(C)C(C)N(Cc1ccc(Cl)cc1)Cc1nc(C(=O)NCc2ccncc2)co1 (stereo unspecified)
  3, -10
Cc1cccnc1C(NC(=O)C1CCN(Cc2ccc(Cl)c(Cl)c2)CC1)c1ccc(F)cc1 (stereo unspecified)
  5, 7
COc1cccc(N2OC(=O)C(c3ccc(Cl)c(Cl)c3)N(C)C2=O)c1 (stereo unspecified)
  -8, -7
Cc1cccc(N=c2oc3ccc(Br)cc3cc2C(N)=O)c1
  -3, -6
O=C(OCC(=O)N(C1CCCCC1)C1CCCCC1)c1ccc([N+](=O)[O-])o1
  -3, -4
CCC(C(=O)N1CC=CCC1)n1cc(C(C)=O)c2ccccc21 (stereo unspecified)
  5, 5
N#Cc1ccc(-c2ccccc2)nc1SCC(=O)c1ccc(Cl)cc1
  8, -3
CCC(C(=O)N1CCc2c(nc(C)[nH]c2=O)C1)N1Cc2ccccc2C1=O (stereo unspecified)
  9, 5
CCc1cccc2c3c([nH]c12)C(CC)(CC(=O)O)OCC3 (stereo unspecified)
  -1&6&-7&-6, -5&0&-7&-10

# (next part)
SMILES,NPYLR7 agonist,NPYLR7 agonist max-min
Cc1ccc2sc(N(CCN(C)C)C(=O)c3ccc(Cl)s3)nc2c1C,-2,-5
O=C1CC(N(Cc2ccc3c(c2)OCO3)C(=S)Nc2ccccc2)C(=O)N1c1ccc(Cl)cc1 (stereo unspecified),0,-3
CCOC(=O)c1c(C)c(C(=O)NC2CCCC2)c(C)n1C,5,19
CCCSc1nnc(NCc2ccc(OC)cc2)s1,-8,-8
CCN(C(=O)/C=C/c1ccccc1)C(C)C(=O)c1c(C)c(C(=O)OC)n(C)c1C (stereo unspecified),-6,-3
CC(O)c1cn(C2CCN(S(=O)(=O)Cc3ccccc3)CC2)nn1 (stereo unspecified),19,3
CC(=O)Nc1cncc(-c2cccnc2)n1,-1,-3
CN1CCCC(CSc2nncn2CCc2cccs2)C1 (stereo unspecified),16,6
CC(C)CC1NC(=O)N(CN2CCN(C(=O)OC(C)(C)C)CC2)C1=O (stereo unspecified),3,9
COc1cccc(Cc2nsc(N(CCC(=O)Nc3ccc(C)cc3)Cc3ccco3)n2)c1,14,14
CCC(c1nc2ccccc2c(=O)n1-c1ccc(Br)cc1)N(CCc1ccccc1)C(=O)CCc1ccccc1 (stereo unspecified),0,10
Cc1c(C)n2c3c(=O)n(CCCc4ccccc4)c(=O)n(C)c3nc2n1Cc1ccco1,2,9
Cc1ccc2nc(-c3cccc(NC(=O)NC(C)C)c3)oc2c1,15,10
CCc1cc(Oc2cccc(F)c2)nc(SCc2cc(F)ccc2F)n1,3,9
CCOC(=O)c1ccccc1NC(=O)CSc1nnc(C)c2cnn(-c3ccccc3OC)c12,-9,-15
COC(=O)C1=NN(C(=O)c2ccc(Cl)cc2)C(O)(C(C)(C)C)C1 (stereo unspecified),-4,3
CN1C[C@H](Oc2ccccn2)[C@]2(CCN(C(=O)c3cccs3)C2)S1(=O)=O,0,6
COc1ccccc1-c1nc(C)c(-c2ccc(SCC(=O)N3CCCCCC3)nn2)s1,2,12
Cc1ccc(-c2[nH]ncc2CN(C)Cc2ccc3nonc3c2)cc1C,-4&1,-5&3
Cc1cc(C2=NNC(=NC3CC3)SC2C)c(C)n1-c1ccc(Cl)cc1 (stereo unspecified),0,-4
CCN1CCN(c2nc(-c3ccccc3)nc3c2CN(C(=O)NC24CC5CC(CC(C5)C2)C4)CC3)CC1,-3,0
Cn1cc(OCc2ccccc2)c(=O)cc1C(=O)NCCc1ccc(F)cc1,4,0
CC(C)(C)C(=O)N[C@H]1CO[C@H]2[C@@H]1OC[C@H]2O,-7,-11
CC(C)=Nc1ccc(C)cc1C1COC(=O)C1=N (stereo unspecified),-4,-5
Cc1ccc2c(n1)OC(COC(C)(C)C)CN(Cc1cccs1)C2=O (stereo unspecified),-5,4
Cc1ccc(-c2ccc(CCC(=O)NCc3cc(F)cc(F)c3)n2-c2ccc(CC#N)cc2)c(C)c1,23,17
COc1ccc(N2C(=O)C(c3c(C(C)C)[nH]n(-c4ccc(Cl)cc4)c3=O)=C(N3CCC(C)CC3)C2=O)c(OC)c1,13,16
CCS(=O)(=O)NC(=O)C1(C)CCN1C(=O)C1(c2ccc(Cl)cc2)CCC1 (stereo unspecified),-4,-4
O=C(CCn1cccn1)N1CCCC(N2CCN(Cc3ccc4c(c3)OCO4)CC2)C1 (stereo unspecified),15&3,5&3
CC(C(=O)N1CCc2nc(N)sc2C1)n1cnc2ccccc21 (stereo unspecified),21,9
O=C(NCC1CCC2(CC1)OCCO2)Nc1ccc2c(c1)OCCO2,2,0
COc1ccc(C2CC(=O)C3C(=Nc4ccccc4NC3c3ccc(O)cc3)C2)cc1 (stereo unspecified),1,-1
Cn1nccc1C(=O)N1CCCCC1C(=O)Nc1ccc(Oc2ccccc2F)cc1 (stereo unspecified),1,-1
CCc1ccc(-c2nc3ccccc3c(=O)n2Cc2ccccc2)cc1,4,-2
COc1cccc(C(=O)N2CCN(C(C(=O)NCc3ccncc3)C3CCCC3)CC2)c1 (stereo unspecified),-4,-1
Cn1ccnc1C(NC(=O)c1ccn2nnnc2c1)C1CC1 (stereo unspecified),-1,-5
C=C(C)CN(CC)S(=O)(=O)c1cc(S(C)(=O)=O)ccc1Cl,10,6
CCOC(=O)c1[nH]ncc1[C@@H]1C[C@H]2CN(Cc3ccccc3OC)C(=O)[C@]23CCCN13,8,-3
COc1ccc(C(=O)N2CCC(=O)N(C)c3ccccc3C(OC)C2)cc1OC (stereo unspecified),3,13
O=C1c2sc3nnc(-c4ccccc4)c(=O)n3c2C(=O)N1c1cccc(Cl)c1Cl,-1,29
C=CCN(Cc1cc(Br)ccc1F)C(=O)C(C)NC(N)=O (stereo unspecified),1,11
CCC(COC)NC(=O)c1cc(N2CCOCC2)nc2ccccc12 (stereo unspecified),5,2
COCc1ccc(C(=O)N2CCC3(CCCN(Cc4ccc(C(C)C)cc4)C3)C2)o1 (stereo unspecified),3,11
O=C1OCCC1N1CCCC(c2nc(-c3ccc(Cl)cc3)no2)C1 (stereo unspecified),1,-12
COc1cc(Nc2ccc(NC(=O)/C=C/c3ccccc3)cc2)nc(C)n1,4,-1
CCCCCCNC(=O)CCN(Cc1ccco1)C(=O)c1cnc(C)cn1,11,10
CC1=C(C(=O)OC(C)C)C(c2ccccc2OC(C)C)C2=C(CCCC2=O)N1 (stereo unspecified),0,1
Cc1ccc(-c2ccc3nc(CO)[nH]c3c2)c(-n2cccn2)c1,-7,-9
C[C@H](NC(=O)CCc1nc2ccccc2c(=O)[nH]1)c1ccccc1,-1,-7
Cc1nn(CC(=O)Nc2sc3c(c2C#N)CCCC3)c(C)c1[N+](=O)[O-],-3,-7
O=C(COc1cc(Cl)ccc1Cl)N1CCN(S(=O)(=O)Cc2ccccc2)CC1,8,11
Cc1ccc(C)c(C(=O)N2CCOC(Cc3ccccc3Cl)C2)c1 (stereo unspecified),5,5
FC(F)(F)c1ccc(Cl)c(Nc2nc3ccc(Cl)cc3o2)c1,-6,-6
CCN(C(C)c1cccnc1)S(=O)(=O)c1cnc(C(C)C)[nH]1 (stereo unspecified),2,3
CCC(CO)NC(=O)c1c(O)nc2cc(C)ccn2c1=O (stereo unspecified),-3,9
COc1ccc(NC2OC(C(O)CO)C(O)C2O)cc1 (stereo unspecified),-1,-4
CS(=O)(=O)c1ccc(Br)c(C(=O)O)c1,4,2
CC(C)N(CC(=O)N(CCc1c[nH]c2ccccc12)Cc1ccc(C(C)(C)C)cc1)C(C)(C)CO,5,9
COc1cccc(OCc2ccccc2)c1C(=O)N1CCc2ccccc2C1,-11,-16
Cc1ccsc1C(=O)N1CCC(N2CCC(C(=O)NCC3CCCO3)CC2)CC1 (stereo unspecified),2,0
Cc1ccc(-c2nnc(SCCCC(=O)NC(Cc3ccccc3)c3ccccc3)n2-c2ccc(C)cc2)cc1 (stereo unspecified),-5,-2
CC(Oc1ccccc1C#N)C(=O)NCC(C)(C)NC(=O)OC(C)(C)C (stereo unspecified),2,-13
NC(=O)c1cc(Cl)ccc1OCC(=O)N1CCCC1,0,-2

# This is a subset; rates above refer to the full screens.
